# UUG fidelity: modulators of start codon recognition fidelity in yeast. S. cerevisiae UUG-firefly luciferase reporter, luminescence/redox ratio. activity score, % at 18.7 µM. 350,000 compounds, 0.13% hits. AID 602363;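 active = replicate mean at a twofold rise or more, about +100% in these data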;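 note: firefly luciferase made from a UUG start codon reports start codon fidelity; reporter light over untreated wells divided by growth signal over untreated wells; some hits fall short of that in this replicate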
# Env fusion inh: HIV envelope-mediated fusion inhibition | HeLa-JRFL Env/CEM21 cell fusion, luciferase | inhibition, % at 12.3 µM | 360,000 compounds, 1.1% hits;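 active = mean replicate inhibition score of at least 50 and every replicate individually at or above 50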;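 note: 0% = plate neutral controls and 100% = maraviroc near 300 nM; one replicate is shown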
# * marks the source's active call; other numbers are inactive results; [ ] = another dose, or the depositor's remark. These rows are one share of the data. The share of hits here may be higher or lower than overall.
UUG fidelity	Env fusion inh	Compound
14	11[16.7 µM]	C[C@@H]1CN([C@H](C)CO)C(=O)c2cccc(NC(=O)Nc3ccc(F)cc3)c2O[C@H]1CN(C)S(=O)(=O)c1ccc(F)cc1
16	-3[16.7 µM]	C[C@H](CO)N1C[C@H](C)[C@H](CN(C)C(=O)CCCN(C)C)OCCCC[C@H](C)Oc2ccc(NC(=O)Cc3ccccc3)cc2C1=O
-2	3[16.7 µM]	COc1ccc(C#Cc2cnc3c(c2)C(=O)N([C@@H](C)CO)C[C@@H](C)[C@@H](CN(C)C)O3)cc1
-4	4[16.7 µM]	C[C@@H]1CN([C@H](C)CO)S(=O)(=O)c2ccc(Br)cc2O[C@@H]1CN(C)Cc1cccnc1
2	-33[16.7 µM]	CC(C)NC(=O)Nc1ccc2c(c1)C(=O)N([C@H](C)CO)C[C@H](C)[C@H](CN(C)S(=O)(=O)c1ccc(F)cc1)OCCCC[C@H](C)O2
-20	5[16.7 µM]	CN1C(=O)c2cc(NS(=O)(=O)c3ccc(F)cc3)ccc2OC[C@@H]2O[C@@H](CC(=O)O)CC[C@@H]21
48	-3[16.7 µM]	CCCNC(=O)N1[C@@H](C#N)[C@@H](c2ccc(-c3cccnc3)cc2)[C@@H]1CO
-10	15[16.7 µM]	Cc1noc(C)c1S(=O)(=O)Nc1ccc2c(c1)C(=O)N([C@H](C)CO)C[C@@H](C)[C@@H](CN(C)Cc1ccc(C(=O)O)cc1)OCCCC[C@@H](C)O2
-10	-28[16.7 µM]	C[C@H]1CN([C@@H](C)CO)C(=O)c2cccc(NS(=O)(=O)c3ccccc3)c2O[C@H]1CN(C)C(=O)Nc1ccc(C(F)(F)F)cc1
-12	14[16.7 µM]	CCC(=O)Nc1ccc2c(c1)C(=O)N(C)C[C@@H](OC)[C@@H](C)CN(C(=O)c1ccncc1)[C@@H](C)CO2
-7	-9[16.7 µM]	COc1cccc(NC(=O)N[C@H]2CC[C@@H](CC(=O)N3CCOCC3)O[C@@H]2CO)c1
-1	4[16.7 µM]	COc1ccc(NC(=O)Nc2ccc3c(c2)C(=O)N([C@@H](C)CO)C[C@@H](C)[C@H](CN(C)S(=O)(=O)c2ccc(Cl)cc2)O3)cc1
-13	7[16.7 µM]	CO[C@H]1CN(C)C(=O)c2cc(NC(=O)c3cc(C)on3)ccc2OC[C@H](C)N(C)C[C@H]1C
-5	-9[16.7 µM]	Cc1noc(C)c1S(=O)(=O)Nc1ccc2c(c1)C(=O)N([C@@H](C)CO)C[C@@H](C)[C@@H](CN(C)C(=O)NC(C)C)OCCCC[C@@H](C)O2
-1	16[16.7 µM]	O=S(=O)(N[C@H]1CC[C@H](CCn2cc(-c3ccccc3F)nn2)O[C@@H]1CO)c1ccc(Cl)cc1
-8	30	C[C@H](CO)N1C[C@H](C)[C@@H](CN(C)C(=O)Nc2ccc(N3CCN(C)CC3)cc2)OCc2cn(nn2)CCCC1=O
6	-16[16.7 µM]	C[C@H](CO)N1C[C@H](C)[C@H](CN(C)C(=O)CN2CCOCC2)Oc2ncc(C#C[C@@H](C)O)cc2C1=O
-14	19[16.7 µM]	C[C@H](CO)N1C[C@H](C)[C@H](CN(C)C(=O)c2cccnc2)Oc2ncc(C3=CCCC3)cc2C1=O
0	-2[16.7 µM]	CCCN(C)C[C@@H]1Oc2cc(-c3ccc(F)cc3)ccc2S(=O)(=O)N([C@H](C)CO)C[C@@H]1C
10	5[16.7 µM]	C[C@H](CO)N1C[C@H](C)[C@H](CN(C)C)Oc2cc(C#CC3CCCCC3)ccc2S1(=O)=O
12	-4[16.7 µM]	COc1ccc(NC(=O)Nc2ccc3c(c2)C(=O)N([C@H](C)CO)C[C@H](C)[C@@H](CN(C)C(=O)NC(C)C)OCCCC[C@H](C)O3)cc1
-5	14[16.7 µM]	O=C(C[C@H]1C[C@H]2c3cc(NC(=O)C4CCC4)ccc3O[C@H]2[C@H](CO)O1)NCc1cc(F)ccc1F
-2	-8[16.7 µM]	C[C@H]1CN([C@@H](C)CO)S(=O)(=O)c2ccc(Br)cc2O[C@H]1CN(C)Cc1cncnc1
10	-2[16.7 µM]	C[C@@H]1CN([C@@H](C)CO)C(=O)c2cc(-c3cccnc3)cnc2O[C@@H]1CN(C)Cc1ccc(-c2ccccc2)cc1
-28	4[16.7 µM]	Cc1noc(C)c1NC(=O)N(C)C[C@@H]1Oc2ccc(NS(=O)(=O)c3ccccc3)cc2C(=O)N([C@@H](C)CO)C[C@@H]1C
1	4[16.7 µM]	COCC(=O)Nc1ccc2c(c1)C(=O)N(C)C[C@H](OC)[C@@H](C)CN(CCc1ccccc1)[C@@H](C)CO2
18	-19[16.7 µM]	C[C@H]1CN([C@@H](C)CO)C(=O)c2cc(C#CC3CC3)cnc2O[C@@H]1CN(C)Cc1cccc(C(=O)O)c1
7	-12[16.7 µM]	Cc1noc(C)c1S(=O)(=O)N(C)C[C@@H]1OCCCC[C@@H](C)Oc2ccc(NC(=O)c3ccccc3)cc2C(=O)N([C@@H](C)CO)C[C@@H]1C
-20	13[16.7 µM]	C[C@@H]1CN([C@H](C)CO)C(=O)c2cc(NC(=O)CCC(F)(F)F)ccc2O[C@@H]1CN(C)CC1CC1
2	5[16.7 µM]	C[C@@H]1CN([C@@H](C)CO)C(=O)c2cc(NC(=O)c3ccccc3)ccc2O[C@@H](C)CCCCO[C@H]1CN(C)C(=O)Nc1ccccc1
7	17[16.7 µM]	C[C@@H]1CN([C@@H](C)CO)C(=O)c2cc(C#CCN(C)C)cnc2O[C@H]1CN(C)C(=O)NC1CCCCC1
6	-5[16.7 µM]	COc1ccc(S(=O)(=O)N(C)C[C@H]2OCCCC[C@H](C)Oc3ccc(NS(C)(=O)=O)cc3C(=O)N([C@H](C)CO)C[C@H]2C)cc1
0	-13[16.7 µM]	CN(C)C(=O)C[C@@H]1CC[C@H]2[C@H](COc3ccc(NS(=O)(=O)c4cccc(F)c4)cc3C(=O)N2C)O1
-4	6[16.7 µM]	CNC[C@@H]1Oc2c(NC(=O)c3ccc(-c4nccs4)cc3)cccc2C(=O)N([C@H](C)CO)C[C@H]1C
2	7[16.7 µM]	C[C@H](CO)N1C[C@H](C)[C@H](CN(C)C)Oc2cc(C#Cc3ccccc3F)ccc2S1(=O)=O
-4	13[16.7 µM]	CCC(=O)Nc1ccc2c(c1)C(=O)N(C)[C@H]1CC[C@@H](CC(=O)NCCN3CCCCC3)O[C@H]1CO2
11	13[16.7 µM]	CCCNC(=O)C[C@H]1CC[C@@H]2[C@@H](COc3ccc(NC(=O)Cc4cccs4)cc3C(=O)N2C)O1
18	6[16.7 µM]	CCCNC(=O)C[C@H]1CC[C@H]2[C@H](COc3ccc(NC(=O)Nc4cccc(C)c4)cc3C(=O)N2C)O1
-7	1[16.7 µM]	O=C(N[C@@H]1CC[C@H](CCn2cc(C3(O)CCCC3)nn2)O[C@@H]1CO)c1ccccc1F
-2	15[16.7 µM]	O=C(Nc1cc(Cl)cc(Cl)c1)N[C@@H]1CC[C@H](CCNS(=O)(=O)c2cccc(F)c2)O[C@H]1CO
-1	4[16.7 µM]	CC(=O)N(C)C[C@H]1Oc2ncc(C#Cc3ccccn3)cc2C(=O)N([C@H](C)CO)C[C@@H]1C
7	3[16.7 µM]	C[C@@H]1CCCCO[C@H](CN(C)S(=O)(=O)c2ccc(F)cc2)[C@H](C)CN([C@@H](C)CO)C(=O)c2cc(NC(=O)c3ccccc3)ccc2O1
3	-3[16.7 µM]	C[C@H](CO)N1C[C@H](C)[C@@H](CN(C)S(C)(=O)=O)Oc2cc(C#CC3CCCC3)ccc2S1(=O)=O
-21	26[16.7 µM]	COc1cccc(C#Cc2ccc3c(c2)O[C@H](CN(C)S(=O)(=O)c2ccccc2F)[C@@H](C)CN([C@@H](C)CO)S3(=O)=O)c1
-7	-7[16.7 µM]	CNC[C@@H]1OCCCC[C@@H](C)Oc2ccc(NC(=O)CCCN(C)C)cc2C(=O)N([C@@H](C)CO)C[C@H]1C
27	-5[16.7 µM]	CCC(=O)N(C)C[C@@H]1Oc2ncc(-c3ccc(C(=O)N(C)C)cc3)cc2C(=O)N([C@H](C)CO)C[C@@H]1C
-11	-23[16.7 µM]	Cn1cnc(S(=O)(=O)N[C@@H]2C=C[C@@H](CC(=O)Nc3ccccc3)O[C@@H]2CO)c1
9	10[16.7 µM]	COc1ccc(COCC23N=C4SCCCN4[C@H](c4ccccc4O2)[C@H]3CO[Si](C)(C)C(C)(C)C)cc1
14	-4[16.7 µM]	Cc1ccccc1S(=O)(=O)N1C[C@H](O)COC[C@H]2O[C@H](CC(=O)NCc3ccccc3Cl)CC[C@@H]21
-2	-71[16.7 µM]	CC(C)NC(=O)N(C)C[C@@H]1OCCCC[C@H](C)Oc2ccc(NS(=O)(=O)c3ccc(F)cc3)cc2C(=O)N([C@@H](C)CO)C[C@@H]1C
-11	-14[16.7 µM]	O=C(CC1CC1)N[C@@H]1CC[C@H](CCNS(=O)(=O)c2ccc(Cl)cc2)O[C@H]1CO
31	-46[16.7 µM]	C[C@H]1CN([C@@H](C)CO)S(=O)(=O)c2ccc(C#CCN(C)C)cc2O[C@H]1CN(C)S(C)(=O)=O
8	1[16.7 µM]	C[C@@H]1CN([C@@H](C)CO)C(=O)c2cccc(NS(=O)(=O)c3ccc(F)cc3)c2O[C@@H]1CN(C)Cc1ccccc1
6	2[16.7 µM]	C/C=C/c1ccc2c(c1)O[C@@H](CN(C)C(=O)NC(C)C)[C@H](C)CN([C@@H](C)CO)S2(=O)=O
10	23[16.7 µM]	Cc1cc(C(=O)Nc2ccc3c(c2)C(=O)N(C)[C@@H]2CC[C@@H](CC(=O)O)O[C@@H]2CO3)no1
-7	58*[16.7 µM]	COc1ccc(NC(=O)Nc2ccc3c(c2)C(=O)N([C@H](C)CO)C[C@H](C)[C@H](CN(C)Cc2ccncc2)OCCCC[C@H](C)O3)cc1
4	-10[16.7 µM]	C[C@H](CO)N1C[C@H](C)[C@H](CN(C)Cc2ccc(C(=O)Nc3ccccc3N)cc2)Oc2ccc(NC(=O)Nc3ccc4c(c3)OCO4)cc2C1=O
27	-8[16.7 µM]	CC(C)C#Cc1cnc2c(c1)C(=O)N([C@@H](C)CO)C[C@@H](C)[C@@H](CN(C)C(=O)Nc1ccccc1)O2
-26	6[16.7 µM]	COc1ccc(NC(=O)N(C)C[C@@H]2Oc3ccc(NS(C)(=O)=O)cc3CC(=O)N([C@@H](C)CO)C[C@@H]2C)cc1
143*	27[16.7 µM]	C/C=C/c1cnc2c(c1)C(=O)N([C@@H](C)CO)C[C@@H](C)[C@@H](CN(C)C(=O)Cc1ccccn1)O2

# The list goes on.
UUG fidelity	Env fusion inh	Compound
8	35[16.7 µM]	C[C@H](CO)N1C[C@H](C)[C@H](CN(C)C(=O)C2CCCCC2)Oc2cc(C#CC3CC3)ccc2S1(=O)=O
8	14[16.7 µM]	COc1cccc(S(=O)(=O)Nc2ccc3c(c2)C(=O)N(C)[C@@H]2CC[C@H](CC(=O)O)O[C@@H]2CO3)c1
31	-13[16.7 µM]	C[C@H]1CN([C@@H](C)CO)C(=O)Cc2cc(NC(=O)Nc3ccccc3)ccc2O[C@H]1CN(C)C(=O)Nc1ccc2c(c1)OCO2
-6	-9[16.7 µM]	C[C@H](O)C#Cc1cnc2c(c1)C(=O)N([C@H](C)CO)C[C@@H](C)[C@@H](CN(C)Cc1cncnc1)O2
-8	-4[16.7 µM]	COc1ccc(CN(C)C[C@H]2OCCCC[C@@H](C)Oc3ccc(NS(=O)(=O)c4c(C)noc4C)cc3C(=O)N([C@H](C)CO)C[C@H]2C)cc1
-2	-7[16.7 µM]	CS(=O)(=O)Nc1ccc2c(c1)[C@H]1C[C@H](CC(=O)NCc3ccc(Oc4ccccc4)cc3)O[C@@H](CO)[C@H]1O2
8	-5[16.7 µM]	C[C@H](CO)N1C[C@H](C)[C@@H](CN(C)C(=O)Cc2ccncc2)Oc2cc(C3=CCCC3)ccc2S1(=O)=O
-4	0[16.7 µM]	CNC[C@H]1Oc2cc(C#CCN(C)C)ccc2S(=O)(=O)N([C@H](C)CO)C[C@@H]1C
-4	-4[16.7 µM]	Cc1noc(C)c1NC(=O)N(C)C[C@@H]1OCCCC[C@@H](C)Oc2ccc(NC(=O)Nc3ccc(C(F)(F)F)cc3)cc2C(=O)N([C@H](C)CO)C[C@@H]1C
6	-11[16.7 µM]	C[C@@H]1CN([C@@H](C)CO)C(=O)c2cc(NS(=O)(=O)c3ccc(F)cc3)ccc2O[C@H]1CN(C)C(=O)Nc1ccc(F)cc1

# Part of the list above in order of formula weight, high to low:
UUG fidelity	Env fusion inh	Compound
31	-13[16.7 µM]	C[C@H]1CN([C@@H](C)CO)C(=O)Cc2cc(NC(=O)Nc3ccccc3)ccc2O[C@H]1CN(C)C(=O)Nc1ccc2c(c1)OCO2
6	-11[16.7 µM]	C[C@@H]1CN([C@@H](C)CO)C(=O)c2cc(NS(=O)(=O)c3ccc(F)cc3)ccc2O[C@H]1CN(C)C(=O)Nc1ccc(F)cc1
-2	-7[16.7 µM]	CS(=O)(=O)Nc1ccc2c(c1)[C@H]1C[C@H](CC(=O)NCc3ccc(Oc4ccccc4)cc3)O[C@@H](CO)[C@H]1O2
8	-5[16.7 µM]	C[C@H](CO)N1C[C@H](C)[C@@H](CN(C)C(=O)Cc2ccncc2)Oc2cc(C3=CCCC3)ccc2S1(=O)=O
8	35[16.7 µM]	C[C@H](CO)N1C[C@H](C)[C@H](CN(C)C(=O)C2CCCCC2)Oc2cc(C#CC3CC3)ccc2S1(=O)=O
-6	-9[16.7 µM]	C[C@H](O)C#Cc1cnc2c(c1)C(=O)N([C@H](C)CO)C[C@@H](C)[C@@H](CN(C)Cc1cncnc1)O2
-4	0[16.7 µM]	CNC[C@H]1Oc2cc(C#CCN(C)C)ccc2S(=O)(=O)N([C@H](C)CO)C[C@@H]1C

# Screening results from PubChem.
